Screening data (PubChem)
AID504770 – E. coli YBA685 growth inhibition, screen for V. cholerae RctB inhibitors; z-score (concentration not given with the values); 130,000 compounds, 0.27% hits; AID 504770; E. coli YBA685 rctB-dependent plasmid, OD600 growth, 3 h; active compounds read low;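 active means z-score under -2 on both plates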;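 further: wells of about 30 µL received 100 nL stock; score is relative to mean and SD of the test wells; the first replicate is given; strong numbers were not always called active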
Ba CapD inh – blocks the Bacillus anthracis CapD enzyme. purified CapD enzyme, fluorescence intensity read-out; active compounds read low; some hits fall short of the stated cut. z-score (concentration not given with the values). 140,000 compounds, 0.23% hits. AID 492967;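 active means z-score under -4 in either of two replicates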;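 further: stock transfer was 100 nL into about 40 µL; score is relative to mean and spread of the plate; one replicate is shown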
* hit, by the source's call; / = no result given.

molecule | AID504770 | Ba CapD inh
O=C(COc1ccc(Cl)cc1)NCc1ccc2[nH]c3c(c2c1)CCCC3 | 0.6 | 19
CCCCn1nnnc1COC(=O)c1ccc(OCC(=O)N2CCOCC2)c(OC)c1 | -0.95 | /
CC1CCc2c(sc(NC(=O)c3cc(-c4ccc5c(c4)OCO5)on3)c2C(N)=O)C1 (centres undefined) | 1.35 | 0.9
COC(=O)c1scc(C)c1-n1c(C)ccc1C | -0.4 | 0.485
COc1ccc(OC)c(Nc2nc3nonc3nc2Nc2cc(OC)ccc2OC)c1 | / | 0.345
Cc1ccccc1-c1nnn(CC(=O)N2c3ccccc3NC(=O)C2(C)C)n1 | 0.5 | /
CCCCSc1ncnc2sccc12 | -0.1 | /
CC(C)NC(=O)c1ccc(N2CCCC2=O)cc1 | -0.5 | 0.245
CN1CCN(C(=O)c2ccccc2C(=O)O)CC1 | 0.8 | /
O=C(c1ccc(Cl)cc1)n1nc(-c2cccnc2)nc1NCc1ccco1 | 2.25 | -0.08
O=C(N1CCN(Cc2ccc3c(c2)OCO3)CC1)N1c2ccccc2Sc2ccccc21 | 1.95 | -0.7
O=C(OCCOc1ccc(Cl)cc1)c1ccc(O)cc1O | -0.45 | /
S=c1[nH]nc(-c2sc3ccccc3c2Cl)n1CCN1CCOCC1 | 0.8 | /
S=c1sc2c(s1)SC1C(CC3C4C=CC(C4)C31)S2 (centres undefined) | 0.2 | /
CN(C)C(C/C=N/OCCOc1cccc(C(F)(F)F)c1)=C(C#N)C#N | / | -0.705

Remaining list, next part.
molecule | AID504770 | Ba CapD inh
COc1ccc(NC(=O)CSc2nc(C(F)(F)F)cc(C)c2C#N)cc1 | / | -0.28
CCN(CC)S(=O)(=O)c1ccc2c(c1)nc(CCC(=O)Oc1ccc3c(c1)OCO3)n2CC | -0.05 | /
COc1ccc(NC(=O)n2ncc3c(C)cccc32)cc1 | 0 | -0.905
O=C(NCc1ccncc1)C1CC(=O)N(c2ccc(Cl)cc2)C1 (centres undefined) | -0.2 | /
O=C(COc1cccc(Br)c1)NCC1CCCO1 (centres undefined) | -0.65 | -0.38
CCOC(=O)c1cc(C#N)c(Sc2nnc(SC)s2)nc1C(F)(F)F | -0.85 | 0.57
CC(C)(C)OC(=O)NC1CCN(C(=O)c2cccs2)CC1 | / | -0.06
CCCN(CCC)C(=O)Cn1c(=O)n(CCC(=O)NCCc2ccccc2)c(=O)c2ccccc21 | -0.4 | 0.525
O=C(O)CNC(=O)c1sc2ccccc2c1Cl | -0.8 | /
CC1(C)OC2OC(COC(=O)COc3ccc(Cl)cc3Cl)C3OC(C)(C)OC3C2O1 (centres undefined) | / | -0.095
COc1cccc(/C=N/n2c(-c3ccco3)nc3ccccc3c2=O)c1 | -0.35 | /
CC(=O)NCc1ccc(C(=O)Cn2nc(C(=O)O)c3ccccc3c2=O)o1 | -0.5 | /
CCOC(=O)c1cnc2ccccc2c1NCCCO | 1.1 | /
Cn1cc(C2CC(=O)N(c3ccc(O)cc3)C2=O)c2ccccc21 (centres undefined) | -0.7 | -0.43
Cc1cc(=O)[nH]c(SCc2nc(-c3cccs3)no2)n1 | -0.3 | 0.52

(more compounds)
molecule | AID504770 | Ba CapD inh
N#Cc1c(/N=C/c2ccc(O)cc2O)sc2c1C1CCN2CC1 | 1.05 | -0.79
CN(C)/C=N\c1nc2nccc(-c3ccc(Oc4ccccc4)cc3)n2n1 | / | 45
N#CCCOC1(C#CCN2CCCC2)CCCCC1 | 0.15 | 0.27
CC(=O)c1sc(-c2ccc(F)cc2)cc1N | / | 5.83
COc1ccc2nsnc2c1 | / | 14.8
CCCn1c(=O)n(C)c(=O)c2c(SCc3nc(-c4cccc(Cl)c4)no3)nc(CC(C)C)nc21 | 0.05 | /
CCOC(=O)n1ncc(C#N)c1N | -0.65 | 0.34
CCOC(=O)C1=C(O)/C(=C/c2ccc(O)cc2)SC1=Nc1ccc([N+](=O)[O-])cc1 | / | 0.165
COC(=O)C(Cc1cn(C(c2ccccc2)(c2ccccc2)c2ccccc2)cn1)NC(=O)c1ccc(C)cc1 (centres undefined) | / | 0.11
O=CN1CCN(C(=O)Cc2ccc(Cl)cc2)CC1 | -0.7 | 0.63
O=C(C1CCC1)N1CCN(c2ccnc3cc(Cl)ccc23)CC1 | -0.35 | 0.26
O=C(Nc1ccccc1C(F)(F)F)C1COc2ccccc2O1 (centres undefined) | / | -0.14
O=C(Cn1ncc2c1-c1ccccc1OC2)N1CCCc2ccccc21 | 0.25 | 1.01
CCn1cc(CN(C)C(=S)Nc2sc3c(c2C(=O)OC)CCC(C)C3)c(C)n1 (centres undefined) | 0.55 | -0.27
O=C(O)c1ccc(-c2ccc(F)cc2)s1 | 0.25 | /

Next results follow:
molecule | AID504770 | Ba CapD inh
CCc1ccc2c(c1)c1n[nH]c(=S)nc1n2C | -0.6 | -0.53
O=C(CNc1ccc(F)cc1)N/N=C1\CCc2ccccc21 | 0.75 | /
CC1CC(C)CN(C(=O)c2coc(=O)c3ccccc23)C1 (centres undefined) | -0.3 | 0.33
CCCCN(C(C)C)S(=O)(=O)c1ccc(C)cc1 | 1.4 | -1
CC(=O)NC(=S)Nc1cccc(C#N)c1 | -0.45 | -0.215
Cc1ccccc1OC1C(=O)N(CC2CCCO2)C1c1ccc2c(c1)OCO2 (centres undefined) | -0.5 | -0.83
CC1CCc2c(sc(NC(=O)COC(=O)c3ccco3)c2C#N)C1 (centres undefined) | -0.15 | /
CCn1c2ccc(C)cc2c2nc(C)sc21 | 0.85 | /
COCC(=O)N(Cc1cc2cccc(C)c2[nH]c1=O)c1ccccc1 | 1.35 | 30.9
CCOc1cc(C(F)(F)F)cnc1C#N | / | -0.715
N#CC1=C(N)N(c2ccc(F)cc2)C2=C(C(=O)CCC2)C1c1ccc(Br)s1 (centres undefined) | / | -1.69
O=c1oc2c3c(ccc2c2c1CCCC2)OCN(CCc1ccccc1)C3 | 0.15 | 69.6
O=C(COC(=O)c1cccs1)c1ccc(Cl)cc1 | 0.5 | 0
O=C1C2ON(c3ccccc3)C(c3ccco3)C2C(=O)N1Cc1ccccc1 (centres undefined) | -2 | 0.14
CC(C)(C)C1CCc2c(sc3[nH]c(=S)[nH]c(=O)c23)C1 (centres undefined) | / | 0.4

Ordered by count of non-hydrogen atoms (largest number first): seven of the compounds above.
molecule | AID504770 | Ba CapD inh
Cc1ccccc1OC1C(=O)N(CC2CCCO2)C1c1ccc2c(c1)OCO2 (centres undefined) | -0.5 | -0.83
N#CC1=C(N)N(c2ccc(F)cc2)C2=C(C(=O)CCC2)C1c1ccc(Br)s1 (centres undefined) | / | -1.69
COCC(=O)N(Cc1cc2cccc(C)c2[nH]c1=O)c1ccccc1 | 1.35 | 30.9
O=C(CNc1ccc(F)cc1)N/N=C1\CCc2ccccc21 | 0.75 | /
CCCCN(C(C)C)S(=O)(=O)c1ccc(C)cc1 | 1.4 | -1
CCc1ccc2c(c1)c1n[nH]c(=S)nc1n2C | -0.6 | -0.53
CCOc1cc(C(F)(F)F)cnc1C#N | / | -0.715

(continued)
molecule | AID504770 | Ba CapD inh
CC1CCCCN1c1nnc(NC(=O)c2csc3c2CCCC3)s1 (centres undefined) | -1.15 | 2.37
Oc1ccccc1C=Nc1ccccc1C(F)(F)F | 0.1 | 0.105
O=C1CCCN1C(=O)CSc1nnc2c(Cl)cc(Cl)cn12 | -0.05 | /
CCOC(=O)C1=C(C)NC2=C(C(=O)CC(c3ccc(OC)c(OC)c3)C2)C1c1ccc(OCC)c(OC)c1 (centres undefined) | / | 2
COc1c2c(c(CSc3nnnn3-c3ccccc3)c(OC)c1OC)C(=O)OC2 | -0.5 | 0.215
CCN1CCSC1=NCc1cccs1 | 0.05 | /
CCOC(=O)C1=C(C)OC(N)=C(C#N)C1c1ccc(OC)c(OC)c1 (centres undefined) | / | 1.12
CN(CC(=O)Nc1sc2c(c1C#N)CCC2)Cc1nc2ccccc2c(=O)[nH]1 | -1.55 | /
O=C(/C=C/c1ccc2c(c1)OCO2)Nc1ccc(S(=O)(=O)N2CCCCC2c2cccnc2)cc1 (centres undefined) | -0.7 | /
Nc1cc(N2CCOCC2)c2nonc2c1[N+](=O)[O-] | / | 0.105
CCn1c(=O)c2ccccc2n(CC(=O)Nc2ccc3c(c2)OCO3)c1=O | 1.95 | /
COc1ccc(C2=NCC(CSc3nnc(C(C)N(C)C)n3-c3ccccc3)S2)cc1 (centres undefined) | -0.25 | /
C=CCSc1nc2c(c(=O)[nH]c(=O)n2C)n1C/C=C(\C)Cl | / | 0.67
CC(=O)Nc1ccc2oc(C)nc2c1 | 0.5 | 1.62
CCN(CC(=O)NC1CCS(=O)(=O)C1)C(=O)c1cc(OC)c(OC)c(OC)c1 (centres undefined) | 0.05 | /

(next part)
The line under a structure holds: AID504770	Ba CapD inh
- COc1ccc(/C=C(/NC(=O)c2ccco2)C(=O)N2CCCCCC2)cc1OC
 : -0.5	-1.19
- Cc1c2n(c3ccccc13)CCC2=O
 : /	19
- COc1cc(CN(C(=S)NCC(=O)O)C2CCCC2)cc(OC)c1OC
 : -1.05	0.12
- COc1ccc(S(=O)(=O)c2cc(NS(=O)(=O)c3ccccc3)cc(C(C)C)c2O)cc1
 : 1.95	-0.63
- COc1ccc(Oc2cccc(F)c2C#N)cc1
 : /	0.335
- O=C1C(Nc2ccccc2)=CC(c2ccc(Cl)cc2)N1c1ccccc1 (centres undefined)
 : /	-0.435
- Cc1ccc(S(=O)(=O)Nc2ccc(N3CCCCC3)cc2)cc1Cl
 : -0.55	-0.28
- O=C(CSc1nc2ccccc2s1)c1ccccc1
 : 0.25	0.495
- CCN1CCCC1CNCc1ccccn1 (centres undefined)
 : 1.85	/
- CCc1ccc(OCC(O)CN2CCN(CC)CC2)cc1 (centres undefined)
 : 0.4	/
- CCOC(=O)c1c(N(C(C)=O)C(C)=O)n(CCCOC)c2nc3ccccc3nc12
 : -0.55	/
- Cc1cccc2cc(C(c3nnnn3CCc3ccccc3)N3CCN(c4nc5ccccc5s4)CC3)c(=O)[nH]c12 (centres undefined)
 : -0.8	/
- O=C(CC1Nc2ccccc2NC1=O)Nc1cccc2ccccc12 (centres undefined)
 : -0.5	/
- CN(C)c1cc(Cl)nc(N(C)C)c1C#N
 : 0.9	1.47
- C=CCN(c1nccs1)S(=O)(=O)c1ccc(C)cc1
 : -0.7	-0.66
- CCOC(=O)C1=C(C)N(C)C2(C)CC1c1ccccc1O2 (centres undefined)
 : 0.3	-0.77
- COc1ccc(N2CCN(C(=O)CCN3C(=S)NC(C)(C)CC3C)CC2)cc1 (centres undefined)
 : -0.5	0.355
- O=C(NCc1ccco1)c1ccc2c(c1)C(=O)N(Cc1ccco1)C2=O
 : -0.05	-0.68
- CC12CCC(C1)C(C)(C)C2NC(=O)c1cccs1 (centres undefined)
 : /	-0.06
- Cc1cc(=O)c2ccc(C(F)(F)F)cc2[nH]1
 : -0.3	0.79

The final 5 compounds of the part above are carried over, then new ones follow:
The line under a structure holds: AID504770	Ba CapD inh
- CCOC(=O)C1=C(C)N(C)C2(C)CC1c1ccccc1O2 (centres undefined)
 : 0.3	-0.77
- COc1ccc(N2CCN(C(=O)CCN3C(=S)NC(C)(C)CC3C)CC2)cc1 (centres undefined)
 : -0.5	0.355
- O=C(NCc1ccco1)c1ccc2c(c1)C(=O)N(Cc1ccco1)C2=O
 : -0.05	-0.68
- CC12CCC(C1)C(C)(C)C2NC(=O)c1cccs1 (centres undefined)
 : /	-0.06
- Cc1cc(=O)c2ccc(C(F)(F)F)cc2[nH]1
 : -0.3	0.79
- CCCC(=O)N1CCC(c2ccc(OC)cc2)=N1
 : -0.55	-0.805
- COCCN(C(=O)Nc1ccc(Cl)c(Cl)c1)C1CCN(C(C)C)CC1
 : 0.7	2.42
- Clc1ccccc1-c1nc(NCc2cccnc2)c2ccccc2n1
 : /	0.35
- COc1cccc(NS(=O)(=O)c2cc(C(=O)N3CC(C)CC(C)C3)ccc2NCCc2ccc(OC)c(OC)c2)c1 (centres undefined)
 : /	0.475
- CCOC(=O)N/N=C/c1ccc2c(c1)OCCO2
 : -1.15	/
- CC1CC1c1ccco1 (centres undefined)
 : -0.2	/
- COc1ccc(CCNC(=O)CCCn2c(SCC(=O)NC3CCCC3)nc3ccccc3c2=O)cc1OC
 : /	-0.105
- CC1(C)CC(=O)C2=C(C1)NC(SCC(=O)Nc1ccccc1)=C(C#N)C2c1ccco1 (centres undefined)
 : -0.6	4.85
- CC1(C(=O)NCc2ccc3c(c2)OCO3)COC(c2ccccc2)OC1 (centres undefined)
 : -0.6	0.02
- N#C/C(=C\C1CC=CCC1)c1nc2ccccc2[nH]1 (centres undefined)
 : 0.4	/
- Fc1c(F)c2c(c(F)c1Cl)Oc1ccccc1O2
 : -0.15	0.45
- C/C=C/C(=O)Nc1ccc(-c2nc3ccc(C)cc3s2)cc1
 : 0.4	110
- CCNc1nc(NCC)n2c(SCC(=O)/C=C3/N(C)c4ccccc4C3(C)C)nnc2n1
 : 1.3	/
- Nc1cccc(-c2nnc(-c3ccco3)o2)c1
 : -0.5	5.58
- CC(NS(=O)(=O)N(C)C)c1ccccc1 (centres undefined)
 : -0.25	0.45
- Cn1nc(C(C)(C)C)cc1C(=O)N1CCC(C(F)(F)F)CC1
 : -0.5	0.16
- CCC(=O)N1CCc2cc(Br)cc(S(=O)(=O)CCC(=O)NCC3CCCO3)c21 (centres undefined)
 : -0.65	-0.085
- CN(C(=O)CSc1ccccc1C(=O)O)C1CCCCC1
 : -0.15	-0.84
- CCOc1cccc(C2N(c3ccccc3)N=C(C(C)=O)N2c2ccc(Cl)cc2)c1OCc1ccccc1Cl (centres undefined)
 : /	-0.355
- Cc1nc2cc(CO)ccc2s1
 : 0.4	/

The results go on:
The line under a structure holds: AID504770	Ba CapD inh
- O=C1C2=C(C(c3ccccc3)=NCCN2)C(c2cccc([N+](=O)[O-])c2)N1c1ccccc1 (centres undefined)
 : /	-0.04
- COc1ccccc1NC(=O)c1cc(S(=O)(=O)N2CCCCC2)ccc1F
 : -0.1	0.895
- Cc1cccc(-c2oc(C)c(C)[n+]2[O-])c1
 : -0.75	0.665
- COc1ccc(C2CC(=O)C3=C(C2)Nc2ccccc2NC3c2coc3ccc(C)cc3c2=O)cc1 (centres undefined)
 : /	-0.345
